GLA inh pH 4.5 = alpha-galactosidase A (human) inhibition, pH 4.5; P06280; activity change, negative = inhibition, % at 105 µM; 230,000 tested, under 10 active; purified enzyme, 4-MU-alpha-Gal fluorescence, pH 4.5; inconclusive = small, poorly fitted or top-dose-only inhibition, or a rising curve; inactive = flat fitted curve, though single readings scatter; no compound was filed as active;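 note: 0% = full activity with enzyme and -100% = basal without enzyme; dose as in the result columns while the protocol names 77 µM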
Target sequence (P06280 whole entry, looked up): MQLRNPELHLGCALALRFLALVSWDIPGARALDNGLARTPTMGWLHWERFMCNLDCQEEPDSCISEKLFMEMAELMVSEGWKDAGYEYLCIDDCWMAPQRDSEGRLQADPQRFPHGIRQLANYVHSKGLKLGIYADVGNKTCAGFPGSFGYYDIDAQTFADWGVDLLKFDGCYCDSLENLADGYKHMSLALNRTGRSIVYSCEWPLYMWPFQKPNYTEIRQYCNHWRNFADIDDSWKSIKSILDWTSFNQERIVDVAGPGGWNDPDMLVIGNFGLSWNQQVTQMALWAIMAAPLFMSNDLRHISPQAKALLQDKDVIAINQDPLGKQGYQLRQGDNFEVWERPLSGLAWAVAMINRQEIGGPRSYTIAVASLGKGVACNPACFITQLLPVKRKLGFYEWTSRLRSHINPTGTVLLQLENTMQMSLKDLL
Rango complex inh = prevents formation of the Rango-importin beta complex | Q14974 | Rango CFP/YFP FRET sensor + importin beta, 45 min | Potency, µM (highest dose often 92.2 µM), inactives show top-dose inhibition of complex formation | hit rate 0.031% among 340,000 | AID 540263; active = rising FRET ratio curve, often small or poorly fitted; inconclusive = mostly compound fluorescence or quenching in the first reads; inactive = flat curves in all reads;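 note: potency is the fitted concentration of half-maximal effect; 0% = DMSO wells and 100% = buffer wells lacking importin beta; nearly all actives have a fitted effect of over 15% in size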
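Inhibition scored from the CFP 486 nm/YFP 530 nm FRET ratio 45 min after adding 0.125 microM importin beta to 50 nM Rango biosensor preincubated 5 min with compound (room temperature, PBS with DTT, Tween-20, BSA). No-importin wells as positive control.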
Rango dissoc inh = inhibitors of RanGTP-induced Rango-importin beta complex dissociation; Potency, µM (top dose mostly 46.1 µM), for the others: at the top dose activity change, negative = inhibition; Biochemical FRET Rango-importin beta, RanGTP-induced dissociation; O95149+P62826; hit rate 0.071% among 340,000; AID 540253; active means falling FRET ratio curve, often poorly fitted, with flat reads before Ran was added; inconclusive means other falling curves, or compound fluorescence or quenching; inactive means flat or rising ratio curve;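 note: potency is the fitted concentration of half-maximal effect; % of control where 0% means no effect; nearly all actives have a fitted effect of over 45% in size; -100% = wells without RanGTP and RCC1; the record marks most hits as doubtful in a second field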
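Recombinant Rango FRET biosensor (EYFP–snurportin 1 IBB–cerulean CFP10) at 0.1 uM premixed with 0.25 uM importin beta in PBS, 1 mM DTT, 0.02% Tween-20, 0.1% BSA. Compound added 5 min; RanGTP-RCC1 (0.6 uM Ran, 2 mM GTP, 0.2 uM RCC1) then triggers release, read at 45 min.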
miR-21 FLuc = raises the signal of a miR-21 reporter | HeLa miR-21 FLuc reporter, luciferase, 48 h | 340,000 tested, under 10 active | Potency, µM (titrated, usually from 38.3 µM), without a hit: at the top dose reporter change, positive = more light; active = well fitted rising curve with a large enough effect; inconclusive = small, poorly fitted or top-dose-only effect; inactive = no such curve, though single readings can be large or run the other way;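 note: % of control where 0% means no effect; miR-21 action dims this reporter so a rising signal means less miR-21 action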
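HeLa cells endogenously expressing miR-21, stably carrying CMV-driven firefly luciferase with a downstream miR-21 binding site, 2000 cells/well. Titrations up to approximately 40 uM, 48 hours; luciferase luminescence read.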
Starred values were filed as active, the others as inactive; ? = inconclusive; . = not tested or not shown; & = joins results of further samples. Not all compounds are listed, so the mix of outcomes need not match the whole.

SMILES	GLA inh pH 4.5	Rango complex inh	Rango dissoc inh	miR-21 FLuc
N#Cc1ccccc1S(=O)(=O)N1CCN(CC(O)c2ccccc2)CC1 (configuration not stated)	-8	2.6%	-14%	0%
CCn1c(C(C)NC(=O)c2cccs2)nc2ccccc21 (configuration not stated)	-8	-1.0%	15%	2%
COc1ccc(C)cc1NC(=O)C(CCS(C)(=O)=O)NC(C)=O (configuration not stated)	3	-0.4%	1%	-1%
Cc1ccsc1/C=N\NC(=O)CCc1c(C)n[nH]c1C	-3	-3.7%	-12%	-1%
O=C(NC1CCC(O)CC1)c1ccc(-c2ccc([N+](=O)[O-])cc2)o1 (configuration not stated)	2	6.2%	-19%	-33%
CCOC(=O)c1sc(=S)n(-c2ccc(F)c(F)c2)c1N	4	0.2%	9%	-9%
O=C(Nc1cccc(F)c1)c1cccc(S(=O)(=O)N2CCOCC2)c1	0	?	-7%	2%
COc1ccccc1OCC(=O)Nc1cccc(-c2nnc(-c3ccco3)o2)c1	-2	?	-9%	-4%
CCC(C(=O)NCCC(C)C)n1ccc2cc(S(=O)(=O)N3CCCCC3)ccc21 (configuration not stated)	.	-1.0%	-10%	29%
Cc1cc(C)c2c(CC(=O)O)c(C)[nH]c2c1	-6	?	?	-1%

Arranged by SMILES length (largest number first): 5 of the compounds above.
SMILES	GLA inh pH 4.5	Rango complex inh	Rango dissoc inh	miR-21 FLuc
CCC(C(=O)NCCC(C)C)n1ccc2cc(S(=O)(=O)N3CCCCC3)ccc21 (configuration not stated)	.	-1.0%	-10%	29%
O=C(NC1CCC(O)CC1)c1ccc(-c2ccc([N+](=O)[O-])cc2)o1 (configuration not stated)	2	6.2%	-19%	-33%
COc1ccc(C)cc1NC(=O)C(CCS(C)(=O)=O)NC(C)=O (configuration not stated)	3	-0.4%	1%	-1%
CCOC(=O)c1sc(=S)n(-c2ccc(F)c(F)c2)c1N	4	0.2%	9%	-9%
Cc1cc(C)c2c(CC(=O)O)c(C)[nH]c2c1	-6	?	?	-1%

(continued)
SMILES	GLA inh pH 4.5	Rango complex inh	Rango dissoc inh	miR-21 FLuc
CC1CN(C(=O)c2ccccc2OCc2ccc(Cl)cc2Cl)CC(C)O1 (configuration not stated)	.	-2.5%	-8%	.
Cc1c(Cl)cccc1NC(=O)CNC(=O)CCS(=O)(=O)c1ccc(F)cc1	.	-0.4%	-4%	.
CCn1c(CNc2nc3ccccc3n2C(C)C)nc2ccccc21	-1	2.9%	-8%	-11%
Cc1cc(C)nc(NC(=S)NC(=O)c2ccccc2)n1	.	1.6%	-5%	-8%
CCc1nnc(NC(=O)C2CCCN2C(=O)Nc2ccc(C)cc2)s1 (configuration not stated)	.	-2.3%	0%	-7%
CC(C)Oc1ccccc1NC(=O)CSc1nccn1C	.	-0.2%	-7%	-2%&3%
COc1ccc(CCNC2=CC(=O)CC(C)(C)C2)cc1	-2	0.0%	-5%	-16%
COc1ccc(C2=NCCn3nc4cc(OC)ccc4c32)cc1	.	3.1%	1%	.
COc1ccc(-c2cc3nc[nH]c(=O)c3s2)cc1	5	1.1%	23%	-41%
CCn1c(O)c(C#N)c(C)cc1=O	5	?	9%	-2%
Cc1ccsc1/C=N/NC(=O)c1sccc1C	2	-0.8%	8%	-43%
COc1ccc(/C=N/NC(=O)CCN2CCCCC2c2cccnc2)cc1Cn1cc([N+](=O)[O-])cn1 (configuration not stated)	-1	0.0%	-12%	-1%
O=C(COC(=O)/C=C/c1ccco1)NCc1ccco1	10	-2.9%	7%	6%
CCn1c(C)nc2cc(S(=O)(=O)C(F)(F)C(F)C(F)(F)F)ccc21 (configuration not stated)	-4	-4.6%	28%	6%
COC(=O)c1c(C)[nH]c(C(=O)C(C)OC(=O)c2cc(C)oc2C)c1C (configuration not stated)	.	-3.7%	0%	.
COc1c2c(cc3oc(C)cc(=O)c13)OC(C(C)(C)OC1OC(CO)C(O)C(O)C1O)C2 (configuration not stated)	3	-0.3%	20%	-1%
CCOc1ccc(NC(=O)c2ccc(CSc3nnnn3C)cc2)cc1	5	-0.3%	-10%	-28%
CCn1c(SCC(=O)Nc2ccc3[nH]c(=O)[nH]c3c2)nc2ccccc21	.	0.0%	-5%	.
O=C(/C=C/c1ccc(Cl)cc1)NCCCN1CCOCC1	.	0.8%	1%	-5%
CCC(=O)Nc1ccc(NC(=S)Nc2ccccc2)cc1	3	3.4%	-1%	-4%
Cc1[nH]c2ccccc2c1/C=N/NC(=O)c1cc(-c2ccncc2)nc2ccccc12	.	5.9%	7%	16%
CC1CCN(C(=O)c2cc3ccccc3o2)CC1	-1	-0.1%	17%	-53%
O=C(CCN1C(=O)c2cccc3cccc(c23)C1=O)NCc1ccco1	4	1.7%	-1%	-3%
COc1cccc(OCc2cc(C(=O)N(C)CCC3CCCCO3)no2)c1 (configuration not stated)	.	-1.2%	-9%	-31%
O=Cc1ccc([B-](F)(F)F)s1	.	1.3%	17%	.
Cc1cccc(OCCCn2c(CCNC(=O)C(C)C)nc3ccccc32)c1	-4	1.5%	-8%	3%
COCCNC(=O)CCc1nc2cccnc2n1Cc1ccc(OC)cc1	.	3.1%	8%	-1%&-7%
COc1ccc(/C=N/NC(=O)c2[nH]c3ccc(Br)cc3c2-c2ccccc2)cc1	-1	-0.7%	12%	25%
Cc1nnc(SCC(=O)NC(=O)Nc2ccc3c(c2)OCCO3)n1N	-5	0.5%	0%	-45%
NC(=S)N/N=C/c1coc2cc(Br)ccc2c1=O	-19	-2.8%	-13%	0%
COc1cccc(CN2CCNC(=O)C2CC(=O)N2CCOc3ccccc3C2)c1OC (configuration not stated)	3	-5.0%	-2%	0%
Cc1ccc(C(=O)OCC(=O)Nc2cc(C(C)(C)C)no2)c(C)c1	.	-1.5%	19%	.
O=C(CC(c1ccccc1)c1cc(Cl)ccc1O)NCCN1CCOCC1 (configuration not stated)	9	2.2%	-17%	19%
Cn1c(N/N=C/c2c[nH]c3ccccc23)nc2ccccc21	6	0.5%	-3%	20%
Cn1c(=O)[nH]c(=O)c2c1nc(N1CCOCC1)n2CC(O)COc1ccccc1 (configuration not stated)	-2	0.0%	-18%	-8%
O=C(NCC(c1ccco1)N1CCc2ccccc2C1)c1ccccc1Cl (configuration not stated)	.	4.1%	7%	.
CCOc1c(O)ccc(/C=C2\SC(=S)NC2=O)c1[N+](=O)[O-]	-1	1.2%	1%	-35%
CCOc1ccc(N2C(=O)CN=C2Nc2ccccc2Cl)cc1	-11	-0.6%	17%	-5%
COCCCNc1oc(COc2ccc(Cl)cc2Cl)nc1C#N	-1	?	?	-6%
CCCCN(Cc1ccccc1)C(=O)C1CCCN(S(=O)(=O)c2cnc[nH]2)C1 (configuration not stated)	-14	3.9%	9%	-4%
Nc1c(Br)cc(Br)c2c1-c1ccc([N+](=O)[O-])cc1C2	.	5.8%	?	.
CCOc1ccc(NC(=O)CN(C)C(=O)Cc2c(C)nc3ccccc3c2C)cc1OCC	.	?	-6%	2%
CN(C)/C=C1\C(=O)N(c2ccc(Oc3ccccc3)cc2)CS1=O (configuration not stated)	5	-1.5%	-1%	-13%
CCN(CC)C(CNC(=O)c1cc(=O)[nH]c2ccccc12)c1ccccc1Cl (configuration not stated)	.	0.8%	-14%	1%
O=C(N/N=C/c1cccs1)c1ccc2c(c1)OCO2	-6	0.0%	1%	-31%
COc1ccc(CCNC2=C(Cl)C(=O)N(Cc3ccccc3)C2=O)cc1OC	2	?	?	?
Cc1cc(N2CCOCC2)nc(SCc2ccc(Cl)cc2Cl)n1	6	0.4%	5%	-17%
CCN(CC)S(=O)(=O)c1cccc(C(=O)NC(C(=O)Nc2nnc(C)s2)C(C)C)c1 (configuration not stated)	3	-0.2%	-10%	1%
Cc1nn(-c2ccccc2)c(C)c1/C=N/NC(=O)c1cc(O)cc(O)c1	.	1.6%	-22%	0%
CSc1ncccc1C(=O)NCCc1ccc(S(N)(=O)=O)cc1	.	-3.3%	1%	-1%

Continued:
SMILES	GLA inh pH 4.5	Rango complex inh	Rango dissoc inh	miR-21 FLuc
Cc1nc(/N=C(\N)NC(=O)NC2CCCCC2)nc2ccccc12	0	6.3%	0%	17%
COc1cc2c(cc1OC)C(C(C)C)=NC(C)(C)C2	-7	-2.8%	-3%	-2%
Cc1ccc(/C=N/N(C)C2=NS(=O)(=O)c3ccccc32)cc1	.	0.4%	-3%	0%
Cc1nc(Nc2ccc(F)cc2)[nH]c(=O)c1CCC(C)C	-2	3.2%	-1%	-3%
O=S(=O)(NCC1CCCO1)c1cc(Br)c(Br)s1 (configuration not stated)	-1	-1.7%	-7%	-11%
CNC(=O)c1cc(C(=O)c2ccc(F)cc2Cl)c[nH]1	.	3.4%	9%	-8%
Fc1cccc(Cc2noc(CN3CCN(C4CCc5ccccc5C4)CC3)n2)c1 (configuration not stated)	0	-0.7%	0%	4%
O=C(CCn1c2c(c3ccccc31)CCCC2)NNC(=O)c1ccccc1C(=O)O	-7	4.0%	10%	18%
Cc1ccc(S(=O)(=O)N2CCC(C(=O)N/N=C/c3ccccc3[N+](=O)[O-])CC2)cc1	?	-2.2%	9%	-14%
COC(=O)c1sccc1N(C)S(C)(=O)=O	5	4.3%	16%	-3%
Cc1cc(OCC(=O)c2ccc(Br)cc2)ccc1N1C(=O)CCC1=O	6	-0.6%	1%	-5%
O=C(CNC(=O)c1ccc(-c2ccccc2)cc1)OCc1ccc(Cl)cc1	6	-5.4%	25%	-1%
Cc1cc(Br)cnc1NC(=S)Nc1ccc(F)cc1F	-1	0.7%	9%	-15%
CCCCNC(=O)c1cccc(NC(=O)C(=O)c2ccccc2NC(C)=O)c1	0	-5.5%	5%	-15%
CC(C)c1ccc(NC(=O)Cc2ccc(NC3=NC4CS(=O)(=O)CC4S3)cc2)cc1 (configuration not stated)	.	-0.1%	-8%	-29%
COc1cc(S(=O)(=O)NC2CCCCC2)ccc1F	-2	-1.0%	-1%	-3%
CN=C(Nc1cccc(S(=O)(=O)N2CCOCC2)c1)c1ccccc1	.	5.0%	2%	.
COc1ccccc1NS(=O)(=O)c1ccc(NC(=O)c2nc3ncccn3n2)cc1	-7	0.0%	1%	-2%
Cc1ccc(NCc2nnc(SCC(=O)Nc3ncc(C)s3)n2CC2CCCO2)c(C)c1 (configuration not stated)	-4	1.9%	6%	2%
CN(C)CCCNc1cc(-c2ccccc2)nc2cc(-c3cccc(F)c3)nn12	.	1.6%	-18%	?
CCCCN(C(=O)c1cc2c(s1)CCCCC2)c1c(N)n(CCC)c(=O)[nH]c1=O	.	4.3%	4%	.
Cc1c(C(=O)Nc2cccc(F)c2)cnn1-c1ccccc1	.	0.6%	1%	-22%
COCCN(Cc1ccccc1)C(=O)Cc1ccc(S(=O)(=O)N2CCOCC2)s1	.	2.1%	1%	.
COc1ccc(NC(=S)NN2CCOCC2)cc1OC	2	3.1%	7%	-5%
Nc1cccc(C(=O)O)c1	.	-3.3%	8%	3%
Cc1cc(C(=O)N(C)CC(=O)Nc2ccc(Cl)c(C(F)(F)F)c2)no1	.	-0.9%	0%	.
COc1cc(/C=C/C(=O)OCC(=O)N2CCc3ccccc3C2)ccc1O	-1	?	-19%	-4%
O=C(NCCNc1ccc([N+](=O)[O-])cc1Cl)c1ccccc1F	.	0.2%	-6%	-13%
O=C(COC(=O)C1CCCCC1)Nc1cccc(F)c1	.	9.4%	38%	.
Cn1c(=O)c(=O)n(C)c2cc(S(=O)(=O)CCC(=O)N3CCOCC3)ccc21	2	-3.6%	?	-1%
CCN(CC)CCN1C(=O)/C(=C\c2ccc(Cl)c([N+](=O)[O-])c2)SC1=Nc1ccc(OC)cc1	.	0.4%	14%	?
COc1cc(OC)c(OC)cc1/C=N/NC(=S)NCCN1CCOCC1	8	0.9%	-10%	-19%
COCCNC(=O)c1ccc2c(=O)n(Cc3ccco3)c(SCC(=O)Nc3ccc(OC)cc3OC)nc2c1	.	-1.6%	-1%	2%
N#CCCN(Cc1cccnc1)S(=O)(=O)c1ccc(S(=O)(=O)N2CCCCCC2)cc1	-6	-1.8%	12%	0%
O=C(CC(NCCN1CCOCC1)C(=O)O)Nc1cccc(Cl)c1 (configuration not stated)	.	3.6%	-12%	.
COc1cccc(-c2nnc(NC(=O)C(C)C)o2)c1	7	0.1%	-5%	-19%

Assay outcomes: PubChem BioAssay, National Center for Advancing Translational Sciences (NCATS)
